RanGTP-Imp inh – disruptors of Ran-importin-beta complex formation – biochemical, FRET, CFP-Ran, YFP-importin-beta, homogeneous, primary screen; cell-free CFP-Ran/YFP-importin-beta FRET ratio; inhibition, % (no concentration beside the values); hit rate 1.1% among 300,000; AID 2216;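 active = most replicates above 15%; inconclusive = exactly half above 15%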;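 also: 0% = DMSO wells and 100% = Ran loaded with GDP instead of GTP; wells of about 40 µL received 100 nL stock; the first replicate is given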
Bfl-1 A1 inh – inhibitors of the anti-apoptotic protein A1, read as caspase activation. MEF A1-2A-BIM cells, Caspase-Glo 3/7 luminescence, 3 h; percent of clofoctol response, vehicle zero. caspase activation, % (test concentration not listed). hit rate 0.066% among 330,000;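 active = over half of replicate activation scores above 10%, or exactly half above 10 with the replicate mean above 10; inconclusive = replicate mean below 10 yet half the replicates above 10; inactive = over half of replicates below 10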;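 also: wells of about 30 µL received 50 nL stock; many hits fall short of the cut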
Vif A3G – inhibitors of Vif binding to APOBEC3G peptide, primary screen, biochemical, TR-FRET, GST-Vif 1-94, biotin-A3G peptide, dose response retest (AID 1117319); inhibition, %, or IC50 in µM where a hit was titrated; hit rate 0.57% among 260,000; TR-FRET GST-Vif / biotin-A3G peptide binding; higher % means a stronger effect; test concentration not given here; strong numbers were not always called active;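 active = above the screen mean plus three standard deviations and confirmed in dose response; inconclusive = results disagree or hit not tested in dose response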;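 also: Vif residues 1-94 fused to GST binding biotinylated APOBEC3G peptide 110-148; 0% = full assay without inhibitor and 100% = GST in place of GST-Vif; retest series ran down from 100 µM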
T cruzi inh – blocks replication of Trypanosoma cruzi; T. cruzi beta-gal in NIH3T3, luminescence, 90 h; inhibition, % (concentration not given with the values); hit rate 1.4% among 300,000;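 active = mean inhibition across valid replicates above about 55%, limit read from the data; inconclusive = mean below that limit but half or more replicates reach it; inactive = mean below it, under half of replicates reach it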;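 also: signal also drops with host cell toxicity which is not excluded here; 0% = plate median of DMSO wells and 100% = zero luminescence signal; higher percent means less beta-gal luminescence so fewer parasites; stock transfer was 50 nL into about 50 µL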
Ecoli rRNA inh – selective bacterial rRNA inhibition in E. coli. E. coli WT GFP vs humanized-ribosome RFP mutants, fluorescence, 24 h; hits give low values; DMSO median 0, no signal -100. GFP signal change (wild-type ribosome), % (test concentration not listed). hit rate 1.6% among 350,000;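 active = significant combined selectivity score with lowered wild-type GFP, culture density cut under 30%, mutant RFP and density less affected; inactive = any of these conditions unmet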; also: one replicate is shown; some compounds called inactive have numbers as strong as hits
Calb FLC – affects C. albicans growth with fluconazole | growth inhibition, % (test concentration not listed) | C. albicans CaCi-2 (fluconazole-resistant clinical isolate) + fluconazole, Alamar Blue growth, 48 h | hit rate 0.57% among 300,000;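 active = most replicates above 75%; inconclusive = exactly half above 75%; inactive = most below 75%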;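 also: all wells also contain fluconazole at 8 µg/ml as a sub-toxic cotreatment; 0% = median of DMSO wells and 100% = median of geldanamycin control wells; wells of about 8 µL received 7.5 nL stock; the first replicate is given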
AF4-AF9 inh – MLL-AF4/AF9 protein interaction inhibition | P42568 | hit rate 0.47% among 350,000 | inhibition, % at 10 µM | AID 651704 | AlphaScreen, biotin-AF4 peptide binding to FLAG-AF9;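 active = every replicate reaching a set inhibition limit, whatever the replicate mean, cut at about 25% in these data; inconclusive = mean inhibition reaches that limit but some replicates miss it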;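 also: 0% = plate neutral control median and 100% = total signal loss; the record names both 10 and 1 µM as test concentration; the first replicate is given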
Target sequence (P42568 whole entry, looked up): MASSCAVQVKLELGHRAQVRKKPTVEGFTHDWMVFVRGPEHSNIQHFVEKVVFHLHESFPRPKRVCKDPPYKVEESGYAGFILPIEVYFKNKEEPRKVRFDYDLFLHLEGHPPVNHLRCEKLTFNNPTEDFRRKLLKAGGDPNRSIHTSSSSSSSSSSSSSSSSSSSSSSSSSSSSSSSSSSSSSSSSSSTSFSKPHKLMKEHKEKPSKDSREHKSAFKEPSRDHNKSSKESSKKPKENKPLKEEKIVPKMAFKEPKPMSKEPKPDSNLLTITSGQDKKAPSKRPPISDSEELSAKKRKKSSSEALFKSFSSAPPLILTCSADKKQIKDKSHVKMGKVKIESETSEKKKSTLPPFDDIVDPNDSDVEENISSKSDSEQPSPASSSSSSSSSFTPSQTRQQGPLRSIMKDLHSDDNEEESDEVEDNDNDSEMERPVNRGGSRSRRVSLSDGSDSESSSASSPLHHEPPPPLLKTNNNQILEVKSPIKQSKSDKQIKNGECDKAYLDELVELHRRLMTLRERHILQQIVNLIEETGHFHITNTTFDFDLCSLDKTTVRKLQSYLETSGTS
Beta apoptosis – blocks beta cell apoptosis; INS-1E cytokine-induced death, ATP luminescence, 48 h; percent of positive-control rescue, neutral wells zero; protection from apoptosis, % (test concentration not listed); hit rate 0.8% among 300,000;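 active = all replicates at 75% or more, or half of them and the mean; inconclusive = half reach 75% but not the mean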;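 also: 0% = cytokine-treated negative control wells and 100% = positive control rescue; higher means more ATP so stronger rescue from cytokine killing; wells of about 40 µL received 100 nL stock; the first replicate is given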
Ecoli rRNA inh OD600 – also measured in Ecoli rRNA inh; calls as there; OD600 change, %; measured here: OD600 growth;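 optical density of the mix in the first replicate; 0 = DMSO median and -100 = no signal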
Ecoli rRNA inh RFP – recorded beside Ecoli rRNA inh, whose call it bears; RFP signal change, %; measured here: RFP humanized mutant strains;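 first replicate; 0 = DMSO median and -100 = no signal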
* = called active by the depositor; ? = inconclusive; . = not tested or not shown; & = joins results of further samples. An excerpt, so the mix of outcomes need not match the whole.

SMILES	T cruzi inh	Calb FLC	AF4-AF9 inh	RanGTP-Imp inh	Vif A3G	Beta apoptosis	Ecoli rRNA inh RFP	Ecoli rRNA inh OD600	Bfl-1 A1 inh	Ecoli rRNA inh
CC(=O)C1=C(O)C(=O)N(Cc2cccnc2)C1c1ccccc1 (stereo unspecified)	-16.7	0.3	.	-0.1	-0.6%	-10.0	.	.	0.4	.
Cc1cc(C)c2c(=O)n(CC(=O)Nc3ccc(Cl)cc3)sc2n1	60.3*	-8.0	-99.2	-5.5	-28.0%	4.9	-6.0	6.6	0.6	2.4
O=C(Nc1cccc(S(=O)(=O)N2CCCC2)c1)c1cccc(S(=O)(=O)N2CCOCC2)c1	.	.	25.6*	.	.	-0.1	0.7	-2.6	0.6	-5.0
Oc1ccc2cc(Br)ccc2c1CN1CCCC1	-38.2	3.1	-0.3	-1.6	.	2.3	5.5	3.8	0.3	-5.2
CC1(C)CC(=O)/C(=C(\O)CCCN2C(=O)c3ccccc3C2=O)C(=NCCO)C1	11.8	2.1	-1.4	0.2	-2.8%	-1.3	-2.5	3.9	0.3	-0.9
CC(C)(Oc1ccc(Cl)cc1)C(=O)OCn1nnc2ccccc2c1=O	1.9	-11.9	-7.7	1.4	-1.5%	-1.1	-12.6	-42.5	0.5	-13.6
Cc1cc(NC(=S)Nc2cccc3ccccc23)n[nH]1	1.7	-5.0	-0.9	0.7	-9.3%	-5.4	7.5	-56.2	-0.2	-30.0
CCNC(=O)C1=C(O)c2sccc2N(C)S1(=O)=O	-17.2	-7.6	-2.5	75.7*	3.4%	-3.1	-3.0	14.8	1.3	16.9
Cc1sc2ncn(CC(=O)NCCCC(=O)N3CCC(C)CC3)c(=O)c2c1C	-1.4	5.3	4.3	0.6	.	-2.1	-0.8	4.9	-0.7	2.0
Cc1cccc2sc(NNC(=O)c3cc(=O)c4ccccc4o3)nc12	1.7	66.4	-3.3	2.9	?	-1.0	-12.5	-61.1	-5.0	-48.5
COc1ccc(Nc2ncnc3sc(-c4ccccc4)cc23)cc1OC	16.7	4.0	.	1.0	-4.8%	-0.9	.	.	1.2	.
COc1ccccc1C1=CC(=O)C[C@H](c2ccc(F)cc2)C1	.	.	-7.0	.	.	-1.9	-8.4	-60.2	-0.5	-29.0
Cc1ccccc1NC(=S)N(Cc1ccco1)C(C)c1cccs1 (stereo unspecified)	5.3	8.4	9.6	7.8	-12.8%	-4.8	0.5	-1.8	-0.2	-13.0
COc1ccc(CNC(=O)CC2(CC(=O)O)CCCCC2)cc1	-4.6	18.9	-1.5	0.5	-4.3%	.	0.2	-1.5	-1.0	-1.5
Cc1cc(NC(=O)Cn2nc([N+](=O)[O-])c(Br)c2C)no1	2.4	-3.3	-3.2	-8.4	4.5%	-1.9	4.0	7.7	1.5	12.1
CSc1nnc2n(-c3ccc(C)cc3)c(=O)c3c4c(sc3n12)COC(C(C)C)C4 (stereo unspecified)	-1.5	-6.7	-7.3	5.3	0.5%	9.7	1.6	-3.7	1.8	5.6
CCCCOc1ccc(C(=O)N/C(=C\c2cccc([N+](=O)[O-])c2)C(=O)OC(C)C)cc1	37.5	-9.2	.	0.1	10.9%	7.0	.	.	1.5	.
Cc1cc(C)c(NS(=O)(=O)c2ccc(NC(=O)/C=C/C(=O)O)cc2)c(C)c1	-5.3	-17.8	-0.5	1.6	17.8%	-1.3	1.7	2.3	0.3	4.5
COc1ccc(CCNC(=O)C2(c3ccccc3)CC2)cc1	10.6	2.4	-1.7	-0.7	.	1.9	0.5	-18.6	0.0	-3.9
Cc1noc(C)c1COC(=O)c1ccccc1NC(=O)c1ccco1	13.1	0.9	0.4	?	-4.4%	1.1	-4.2	-35.3	0.8	-27.2
Cc1cccc(Cn2ncc(Cl)c(Cl)c2=O)c1	-20.7	21.4	4.3	-3.4	?	-14.1	-10.1	-65.0	0.0	-40.5
CCN(CC)c1ccc(C=Nc2ccc(C)cc2C)c(O)c1	-4.5	-9.2	3.4	1.3	.	-9.4	6.6	9.5	-0.2	1.8
COc1ccc(S(=O)(=O)NN(C)c2ncc(C(F)(F)F)cc2Cl)cc1	1.3	11.8	-4.2	2.3	-5.9%	-8.4	-3.4	-23.1	0.3	-19.1
CCOc1ccc(NC(=O)CN(C)C(=O)c2cc3c(s2)CCC(C)C3)cc1OCC (stereo unspecified)	.	.	0.3	.	-8.7%	-0.8	-0.6	-38.1	2.2	-5.3
COc1ccc(NC(=O)CC2SC(=NCc3ccccc3OC)NC2=O)cc1 (stereo unspecified)	4.2	2.3	.	0.2	-3.9%	.	-1.0	-3.9	0.1	-2.5
COc1ccc(C)cc1NC(=O)CNCc1cccs1	-2.2	-5.8	-0.5	0.0	1.4%	-3.5	-1.5	-14.6	0.1	-14.2
Cc1cc(NC(=O)CN2C(=O)NC(Cc3ccccc3)C2=O)no1 (stereo unspecified)	0.0	12.0	.	2.0	-7.5%	6.3	.	.	0.0	.
COc1ccc(C(=O)NNS(=O)(=O)c2ccc(C)cc2)cc1	1.2	-28.0	-5.5	-0.8	?	4.0	-5.3	-4.7	0.8	1.8
COC(=O)c1ccc(C)c(NC(=O)CCc2ccc(OC)cc2)c1	-1.9	-10.3	3.0	4.2	-1.2%	-3.5	-6.9	-10.3	0.4	3.1
CCCCNC(=S)NNC(=O)c1sccc1C	9.3	13.1	-32.4	3.8	-1.4%	-6.0	-0.6	-18.0	0.9	-4.8
O=C(C[n+]1ccccc1)N/N=C/c1ccccc1C(F)(F)F	-7.8	-2.8	-0.3	0.2	-4.2%	-4.3	-0.2	-3.8	1.4	-11.3
CCc1ccccc1NC(=O)C1COc2ccccc2O1 (stereo unspecified)	-2.2	2.2	1.2	-0.7	.	-1.5	2.2	-8.7	0.4	-8.1
CCC(=O)c1cc(F)c(N2CCN(S(=O)(=O)c3ccc(C)cc3)CC2)cc1C	58.9*	-4.6	.	?	-4.4%	64.4	.	.	0.4	.
CCn1c(=O)cc(OCC(=O)N(C)C2CCCCC2)c2ccccc21	8.2	-4.4	.	-1.2	8.5%	-3.3	-4.5	-15.2	-0.5	-21.2
CC(C)OP(=O)(c1ccc(N(C)C)cc1)C(O)c1ccc(N(C)C)cc1 (stereo unspecified)	3.9	-5.0	-0.2	4.2	-8.7%	-11.1	4.7	8.9	-0.1	9.6
COc1cccc(-c2nc(CS(=O)(=O)CC(=O)NCCc3cc(OC)ccc3OC)c(C)o2)c1	21.3	-12.5	3.2	3.4	.	-1.4	4.7	-13.1	0.0	-9.0
O=C(Nc1cccc(F)c1)C1CCCN(S(=O)(=O)c2cccc3cccnc23)C1 (stereo unspecified)	-3.3	-3.5	-0.4	-1.4	-1.3%	-1.4	2.5	-14.6	-0.3	-6.8
O=C(CC12CC3CC(C1)CC(CC(=O)N1CCCC1)(C3)C2)N1CCCC1	13.2	-7.6	.	-2.2	4.8%	-1.9	.	.	0.5	.
CC(=O)c1c(N2CCCCC2)nc(=S)n(-c2ccccc2)c1C	5.3	1.7	.	5.0	6.0%	0.1	.	.	-0.6	.
COc1cc(Cl)c(C)cc1NC(=S)NN	-8.5	?	-5.2	1.5	-5.0%	34.1	3.2	-2.8	-3.0	-7.6
FC(F)(F)c1cccc(/C=N/NC(=S)NC2CCCCC2)c1	26.4	-19.1	-0.8	0.4	.	8.1	1.7	7.0	1.0	0.6
COc1ccc(S(=O)(=O)N2CCN(C(=O)C3CC3)CC2)cc1Br	.	.	-18.5	.	-2.2%	-4.2	5.1	2.0	-1.0	1.6
O=C(N/N=C/c1ccc2nccnc2c1)c1ccccc1O	-6.1	7.7	-2.6	1.3	16.1%	-4.9	-1.9	7.6	-5.0	4.2
Cc1cc(C(=O)CSc2nc3ccccc3n2CCC#N)c(C)n1Cc1cccs1	26.8	-16.0	.	?	11.2%&-9.7%	-2.7	1.6	8.0	0.2	0.6
COc1ccc(N=Nc2n(C)c3ccccc3[n+]2C)cc1	63.8*	-39.9	.	-0.8	25.7%	.	.	.	.	.
Cc1ccnc(N2CCCC(C(=O)Nc3nnc(C)s3)C2)n1 (stereo unspecified)	-14.9	-5.4	.	-0.5	19.9%	3.6	.	.	0.1	.
COc1ccccc1-c1nnc(SCC(=O)NNC(=O)c2ccccc2F)n1C	.	.	-0.8	.	-4.9%	-3.7	-1.0	10.4	-1.4	9.8
COCCN(CC(=O)Nc1cccc(C)c1C)C(=O)c1cc(S(=O)(=O)N2CCCC2)ccc1C	.	.	-0.4	.	7.2%	-1.3	-1.7	11.4	-0.3	5.1
CCOc1cc(C(c2c(C)[nH][nH]c2=O)c2c(C)[nH][nH]c2=O)ccc1OC(=O)c1cccc([N+](=O)[O-])c1	0.9	-43.6	.	-1.8	14.8%	-3.2	.	.	1.0	.
CN(C(=O)COc1cc(=O)n(C)c2ccccc12)c1ccc(Cl)cc1	8.7	5.3	-2.2	-5.1	-0.4%	2.1	-4.0	-13.5	0.5	-5.7
Cc1cc(NC(=O)CSCC(=O)OC(C)C(=O)N(C)Cc2ccccc2)no1 (stereo unspecified)	3.1	6.7	2.0	-3.6	-7.2%	-6.4	0.8	10.0	1.5	4.8
COc1ccc(S(=O)(=O)N2CCCC2)cc1C(=O)N1CCOCC1	6.0	3.5	-8.6	1.1	3.2%	-1.8	-0.2	13.4	0.2	8.7
O=C(CN1C(=O)S/C(=C/c2cccs2)C1=O)N1CCOCC1	-19.2	-1.1	.	2.9	-8.1%	-6.1	.	.	0.3	.

High-throughput results: PubChem, several laboratories
